# ClpP mod – qHTS Assay for Activators of ClpP. ATP-dependent Clp protease proteolytic subunit (Bacillus subtilis (strain 168)), P80244. Potency, µM (series often up to 57.5 µM), for inactives: top-dose activity change, negative = active. purified B. subtilis ClpP, FRET peptide cleavage, 20 min. 340,000 compounds, 1.9% hits; active = well fitted falling curve with a large enough effect; inconclusive = small, poorly fitted or top-dose-only effect; inactive = no such curve, though single readings can be large or run the other way; further: the source files actives as falling curves though it sought activators and does not explain the sign; nearly all actives have a fitted effect of over 65% in size; many hits overshoot -100%
# Target sequence (P80244 whole entry, looked up): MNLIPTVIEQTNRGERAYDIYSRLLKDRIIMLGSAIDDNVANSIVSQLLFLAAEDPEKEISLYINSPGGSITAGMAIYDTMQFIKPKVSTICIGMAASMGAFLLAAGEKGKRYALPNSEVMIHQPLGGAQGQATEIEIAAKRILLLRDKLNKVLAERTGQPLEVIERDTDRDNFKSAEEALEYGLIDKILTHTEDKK
#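 ClpP 10 microg/mL final, pH 8 Tris/KCl buffer with BSA, glycerol, Tween-20; compound pinned in; FRET-FV substrate; RT 20 min; Ex320/Em430; ΔFRET vs ADEP 5.8 microM, DMSO, no enzyme.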
# The depositor's hits bear a star; ? = inconclusive. Potency means the concentration at half of the fitted maximal effect.
SMILES	ClpP mod
CN(C(=O)CSc1nc2ccc(NC(=O)COc3ccccc3Cl)cc2s1)c1ccccc1	-1.1%
COc1ccc(/C=C/c2nc(C#N)c(NCc3ccc(C)cc3)o2)cc1OC	3.9%
Cc1cccc(N2CCN(Cc3nnc(-c4ccccc4C)o3)CC2C)c1 (centres undefined)	-3.0%
Cc1ccc(-n2ncc(C(=O)NCc3cccs3)c2C2CCN(C(=O)OC(C)(C)C)CC2)c(C)c1	-2.9%
O=S(=O)(c1ccccc1)c1nc(-c2cccc(Cl)c2)oc1NCc1ccccc1	?
COc1ccc(Cl)cc1NC(=O)COc1cccc2c(=O)n(C)ccc12	-12.4%
CC(=O)c1ccc(NC(=O)c2nc(-c3ccccc3)n(-c3ccc(C)cc3)n2)cc1	-16.2%
C=C1C=C(C(F)F)n2ncc(C(=O)NCc3ccc(Cl)cc3Cl)c2N1	13.1%
CCOC(=O)[C@]12CCCC=C1N(Cc1ccco1)C(=O)[C@H](CC(=O)NCc1cccc(C(F)(F)F)c1)C2	-2.7%
COc1ccc(C2C(=O)N(C3CCCCC3)CC(=O)N2CCc2ccc(C)cc2)cc1OC (centres undefined)	1.0%
CC(C)(C)NC(=O)Cn1cc(S(=O)(=O)Cc2ccc(F)cc2)c2ccccc21	-1.1%
Cc1ccc(C2=NN(CC(=O)NCCc3ccc(Cl)cc3)C(=O)CC2)cc1	0.5%
COc1ccc(OC)c(CNC(=O)CN(c2ccc(C)cc2)S(=O)(=O)N(C)C)c1	0.8%
Cc1cc(C)c2sc(N3CCN(C(=O)c4ccc(N(C)C)cc4)CC3)nc2c1	-5.8%
O=C(c1cnn(-c2ccc(F)cc2)c1-n1cccc1)N1CCN(c2ccc(Cl)cc2)CC1	0.6%
COc1cccc(N2CCN(c3ncc4c(n3)CCN(Cc3ccc(Br)cc3)C4)CC2)c1	-22.4%
O=C(Cn1c(=O)n(-c2ccc(F)cc2)c(=O)c2sc3ccccc3c21)NC1CCCC1	4.1%
CCCCOc1ccc(C(=O)N2CC(=O)Nc3ccc(Br)cc3C2c2ccc(F)cc2)cc1 (centres undefined)	-0.6%
CN1C(C(=O)c2ccccc2)=C(NC(=O)c2ccccc2Br)c2ccccc2S1(=O)=O	1.0%
CCN(CC)S(=O)(=O)c1ccc(C(=O)NCCSc2c(-c3ccccc3)[nH]c3ccccc23)cc1	-0.2%
Cc1ccc(-n2nc(C(=O)N(C)c3ccc(C)c(C)c3)c3c4ccccc4n(C)c3c2=O)cc1	-3.5%
Cc1ccc(C)c(CN2C(=O)C(O)(c3c(C)[nH]c4ccccc34)c3ccccc32)c1 (centres undefined)	-2.2%
O=C(Nc1cccc(C(=O)OCc2cc(=O)n3c4c(sc3n2)CCCC4)c1)c1cccc(F)c1	-20.6%
CC(C)(C)c1ccc(C(=O)C[n+]2ccccc2Cl)cc1	-18.2%
CCc1ccc(NC(=O)C2CCN(S(=O)(=O)c3ccc4[nH]c5c(c4c3)CCCCC5)CC2)cc1	?
CCc1ccc(C2c3c(-c4cc(C)ccc4O)n[nH]c3C(=O)N2CCO)cc1 (centres undefined)	-0.1%
O=C(CSc1nc(-c2ccccc2)nc2c1Cc1ccccc1O2)N1CCCCC1	0.7%
COc1ccc(CNC(=O)c2sc3nc4n(c(=O)c3c2C)CCCC4)cc1	-3.9%
Cc1cccc(Cn2c(SCc3ccc(C(=O)NCc4cccs4)cc3)nc3ccncc32)c1	?
COc1ccc(C)cc1NS(=O)(=O)c1cc(Br)cc2c1N(C(C)=O)C(C)C2 (centres undefined)	0.2%
O=C(Cn1c(=O)n(Cc2ccc(Cl)cc2)c(=O)c2cccnc21)Nc1ccccc1C(F)(F)F	-0.5%
COc1cccc(CN(C(=O)c2cccc(C)c2)C2CCS(=O)(=O)C2)c1 (centres undefined)	-2.4%

# An excerpt of these results, field by field.
SMILES: COc1ccc(Cl)cc1NC(=O)COc1cccc2c(=O)n(C)ccc12
  ClpP mod = -12.4%
SMILES: C=C1C=C(C(F)F)n2ncc(C(=O)NCc3ccc(Cl)cc3Cl)c2N1
  ClpP mod = 13.1%
SMILES: Cc1cc(C)c2sc(N3CCN(C(=O)c4ccc(N(C)C)cc4)CC3)nc2c1
  ClpP mod = -5.8%
SMILES: Cc1cccc(N2CCN(Cc3nnc(-c4ccccc4C)o3)CC2C)c1 (centres undefined)
  ClpP mod = -3.0%

# (more compounds)
SMILES	ClpP mod
CCN(CC)CCCNC(=O)c1nn(C)c2c1CS(=O)(=O)c1ccccc1-2	-20.0%
O=C(NCc1cccc(Cl)c1)c1cccn1-c1nnc(N2CCCC2)s1	-9.7%
COc1ccc(NC(=O)c2nnn(CC(=O)Nc3cccc(C)c3C)c2N)c(OC)c1	?
Cc1c(Cl)cccc1Nc1nn2c(=O)c3ccccc3nc2s1	-1.9%
COc1ccc(S(=O)(=O)N[C@H]2CC[C@H](CCNC(=O)c3ccccc3F)O[C@@H]2CO)cc1	-1.4%
Cc1ccc(S(=O)(=O)N(CC(=O)Nc2ccc3c(c2)OCO3)c2cc(Cl)cc(Cl)c2)cc1	-0.3%
Cc1nc2c(-c3ccccc3)c(C)nn2c(C)c1CCC(=O)NCc1ccc(F)cc1	2.1%
Cc1ccc(NC(=O)C2CCC(CNS(=O)(=O)c3ccc4c(c3)CCCC(=O)N4)CC2)c(C)c1 (centres undefined)	0.7%
CCOC(=O)C1CCCN(c2c(C(=O)c3ccccc3)cnc3ccc(F)cc23)C1 (centres undefined)	-1.5%
Cc1cccn2c(=O)c(/C=C(\C#N)c3nc4ccccc4n3C)c(Oc3ccc(Br)cc3)nc12	-17.9%
CCN(c1ccccc1)S(=O)(=O)c1cc(-c2onc(C)c2C)ccc1OC	-0.7%
CCCN(C(=O)Cc1c(C(=O)O)[nH]c2ccc(Cl)cc12)c1ccc(OCC)cc1	-10.1%
COc1ccc(-c2cn3nc(N4CCC(C(=O)Nc5cc(Cl)ccc5C)CC4)sc3n2)cc1	-4.0%
CC1CCN(S(=O)(=O)c2ccc3c(c2)CCN3C(=O)Nc2cccc(Br)c2)CC1	58.9%
Cc1ccc(-c2nnc(C3CCN(S(=O)(=O)c4ccc(C)c(C)c4)CC3)o2)cc1	0.2%
CCC(C)n1c(SCc2ccc(F)cc2Cl)nc2ccsc2c1=O (centres undefined)	1.4%
N#CN=c1snc(-c2ccccc2)n1-c1ccc(Br)cc1	1.9%
Cc1ccc(C(=O)N2CCN(CCc3ccncc3)CC2)cc1	0.2%
Cc1ccnc(NC(=O)c2c(C)oc3ncn(CC(C)C)c(=O)c23)c1	0.7%
O=C1CC(c2nnc(Cc3ccc(Cl)cc3)o2)CN1c1ccccc1 (centres undefined)	-2.9%
CO[C@@H]1CN(C)C(=O)c2cc(NC(=O)NC3CCCCC3)ccc2OC[C@@H](C)N(CCc2ccccc2)C[C@H]1C	-4.8%
N#Cc1c(N)[nH]c(C(=O)c2ccccc2)c1-c1ccc(Cl)cc1	0.5%
CCN(CC)c1nn2c(=O)c(C(=O)NCc3ccc(N(C)C)cc3)cnc2s1	-8.2%
COc1ccc(CCNC(=O)CCc2c(C)nc3cc(-c4ccccc4)nn3c2C)cc1OC	-28.0%
Cc1cccc(N2CCn3c2nc2c3c(=O)n(C/C=C/c3ccccc3)c(=O)n2C)c1	-17.0%
Cc1ccc(S(=O)(=O)c2nnn3c2nc(N2CCN(c4ccccc4F)CC2)c2ccccc23)cc1C	-7.1%
CCOc1ccc(-n2c(=O)c3c(C)c(C(=O)N(C)C)sc3n(Cc3cc(C)ccc3C)c2=O)cc1	-2.8%
COc1ccc(OC)c(NC(=O)CSc2c3c(nc4ccccc24)CCCC3)c1	1.4%
CC1(C(=O)NCc2ccccc2)CSCC(=O)N1CC(F)(F)F (centres undefined)	1.1%
Oc1ccccc1Nc1nc(-c2ccccc2)c2cc(Cl)ccc2n1	-1.1%
CCCCOc1ccc(C(=O)Nc2ccc3oc(-c4cccnc4)nc3c2)cc1	-26.4%
CCCn1ccc2c(OCC(=O)NCc3ccc(F)cc3)cccc2c1=O	?

# 2 compounds picked at random from the list so far, as already listed:
SMILES	ClpP mod
COc1ccc(OC)c(NC(=O)CSc2c3c(nc4ccccc24)CCCC3)c1	1.4%
CCOc1ccc(-n2c(=O)c3c(C)c(C(=O)N(C)C)sc3n(Cc3cc(C)ccc3C)c2=O)cc1	-2.8%

# Carrying on.
SMILES	ClpP mod
CCOC(=O)c1cccc(NC(=O)Nc2c(C)n(C)n(-c3ccccc3)c2=O)c1	-3.2%
CCOC(=O)c1ccccc1NC(=O)CSc1c(C)cnc2c1c(=O)n(C)c(=O)n2C	-4.1%
CCSc1ncc(Cl)c(C(=O)Nc2c(C(=O)Nc3cccc(C)c3)oc3ccccc23)n1	-0.1%
CCCCCc1ccc(-c2ccc(Br)cc2)nc1	1.4%
COC(=O)c1nnn(-c2cccc(C)c2)c1C(=O)OC	1.2%
COc1ccccc1-c1c(C)nn2c(N3CCN(c4ccc(F)cc4)CC3)cc(C)nc12	-10.2%
C=C1[C@@H](O)CN(Cc2ccc(OC)cc2)S1(=O)=O	1.0%
CC1(C)Cc2cccc(OC(=O)NCCc3ccc(F)cc3)c2O1	1.4%
O=C(CN1C(=O)COc2ccc(S(=O)(=O)N3CCOCC3)cc21)N1CCN(c2ccc(F)cc2)CC1	-2.8%
O=C(NCCCc1nc2ccccc2n1Cc1ccccc1Cl)C1CCCCC1	2.0%
CN(C1CCCCC1)S(=O)(=O)c1ccc2c(c1)c(=O)c(C(=O)NCc1ccccc1Cl)cn2C	0.7%
COC(=O)[C@]12CCCCC=C1N(Cc1ccco1)C(=O)[C@H](CC(=O)NCc1cccc(C(F)(F)F)c1)C2	-1.3%
CCCOc1ccc(C(=O)Nc2ccc3oc(-c4ccc(N(C)C)cc4)nc3c2)cc1	1.26µM*
O=C(CSc1n[nH]c(-c2ccccc2Cl)n1)N1CCN(c2ccccc2F)CC1	-0.5%
CCC(=O)N1CCc2cc(S(=O)(=O)NC(Cc3ccccc3)C(=O)Nc3cccc(OC)c3)ccc21 (centres undefined)	2.7%
O=C(Nc1cc(C(F)(F)F)ccc1Cl)c1nc2ccccc2nc1N1CCCCC1	0.9%
CCN(CC)c1ccc2nc3c(=O)n(C)c(=O)n(C)c3nc2c1	0.1%
CCOC(=O)c1ccccc1NC(=O)CSc1nc(=O)[nH]c2c1CCCC2	-6.9%
O=C(CCC(=O)N1CC2CCCN2c2ccccc21)NCc1ccc(Cl)cc1 (centres undefined)	-1.3%
O=C(NCC[C@@H]1CC[C@@H](NS(=O)(=O)Cc2ccccc2)[C@@H](CO)O1)C1CC1	1.2%
CN(C)c1ccc(CNC(=O)c2ccc(NC(=O)c3nsc4ccccc34)cc2)cc1	6.9%
Cc1ccc(-c2nc3cc(Cl)ccc3o2)cc1NC(=O)COc1ccccc1C	-8.3%
CCOC(=O)c1ccc(N2C(=O)c3[nH]nc(-c4ccc(OC)cc4)c3C2c2cccc(O)c2)cc1 (centres undefined)	-7.4%
CCn1ccc2c(OCC(=O)Nc3ccc(C(C)=O)cc3)cccc2c1=O	-9.5%
O=C(Cn1nc(Cc2cccnc2)c2ccccc2c1=O)Nc1cccc(C(F)(F)F)c1	-3.7%
COc1cccc(C2=C(C(C)=O)Sc3nncn3N2C(C)=O)c1	1.7%
COc1ccc2cc(-c3nc(Cl)c4c5c(sc4n3)CC(C)CC5)c(=O)oc2c1 (centres undefined)	-14.6%
Cc1cc(C)c(S(=O)(=O)NCc2ccc3c(c2)CCN3C(=O)c2ccccc2)c(C)c1	0.9%
O=C(NCCc1nc2ccccc2n1CCOc1ccc2ccccc2c1)C1CCCCC1	-9.0%
CCc1ccccc1NC(=O)C(CCSC)NS(=O)(=O)c1ccc2c(c1)oc(=O)n2C (centres undefined)	-3.3%
O=c1c2sc3ccccc3c2n(Cc2ccccc2F)c(=O)n1CCc1ccccc1	-10.7%
O=C(NCCC1=CCCCC1)C1CCN(C(=O)N2CCOc3ccc(Cl)cc32)CC1	2.0%
CCn1cc(C(=O)NCCC(C)C)c(=O)c2cc(S(=O)(=O)N(C)C3CCCCC3)ccc21	0.0%
O=C(C1CCN(S(=O)(=O)c2cccc3nonc23)CC1)N1CCN(c2ccc(F)cc2)CC1	-2.1%
C=Cc1ccc(Cn2c(C(=O)O)c(CNCc3cc(Br)ccc3OC)c3ccc(C)cc32)cc1	0.7%
COC(=O)CCNC(=O)N1CCN(c2nnc(C)c3c(C)n(-c4ccc(Cl)cc4)nc23)CC1	-10.6%
O=C(Nc1cccc(Cl)c1Cl)c1ccc2c(c1)N(Cc1cccc(Cl)c1)C(=O)c1ccccc1S2(=O)=O	-11.0%
COc1ccccc1NC(=O)c1sc2nc3c(cc2c1N)CN(Cc1ccccc1)CC3	4.1%
Cc1ccc(Cn2c(CN3CCC(C(=O)NCc4cccnc4)CC3)cc3ccccc32)cc1	-0.7%
Cn1cc(S(=O)(=O)N2CCc3ccccc32)cc1C(=O)Nc1ccc(C(F)(F)F)cc1	-14.1%
CC(=O)N1c2c(cc(Br)cc2S(=O)(=O)Nc2ccccc2C)CC1C (centres undefined)	-0.7%
CN(C)c1ccc(/C=C/c2nc3ccccc3o2)cc1	?
CN1CCN(C(=O)c2cc3c(c(-c4cccc(-c5cccnc5)c4)n2)[C@@H](CCO)N(C(=O)CC2CC2)C3)CC1	0.4%

# Bioassay records from PubChem BioAssay.

# Not all compounds are listed. The share of hits here may be higher or lower than overall.
